Ran FRET = inhibitors of Ran–importin-beta complex formation, primary screen, biochemical, CFP-Ran/YFP-importin-beta FRET, RCC1, cell-free (AID 434961) | CFP-Ran/YFP-importin-beta FRET, cell-free; hits give high values | inhibition, % | 0.2% of 7,700 active;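 active = more than half of the replicate wells above 15% inhibition; inconclusive = exactly half above it; inactive = fewer than half above it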;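 also: 0% = DMSO wells and 100% inhibition = RanGDP control wells on each plate; stock of unstated strength diluted about 400-fold; mean of two wells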
* marks the source's active call; other numbers are inactive results; ? = inconclusive. This is a subset, so the mix of outcomes need not match the whole.

A first look (4 entries):
SMILES	Ran FRET
Cc1noc(C)c1NC(=O)N(C)C[C@@H]1Oc2c(NC(=O)c3ccc(-c4nccs4)cc3)cccc2C(=O)N([C@@H](C)CO)C[C@H]1C	4.2
CNC[C@H]1Oc2ccc(NC(=O)C3CC3)cc2C(=O)N([C@@H](C)CO)C[C@@H]1C	4.3
C[C@@H]1CCCCO[C@@H](CN(C)Cc2ccccc2)[C@H](C)CN([C@H](C)CO)C(=O)c2cc(NS(=O)(=O)c3cccs3)ccc2O1	0.4
Cc1noc(C)c1NC(=O)Nc1ccc2c(c1)CC(=O)N([C@@H](C)CO)C[C@H](C)[C@@H](CN(C)Cc1ccncc1)O2	-3.6

Main list (from the top)
SMILES	Ran FRET
Cc1noc(C)c1NC(=O)N(C)C[C@@H]1Oc2c(NC(=O)c3ccc(-c4nccs4)cc3)cccc2C(=O)N([C@@H](C)CO)C[C@H]1C	4.2
CNC[C@H]1Oc2ccc(NC(=O)C3CC3)cc2C(=O)N([C@@H](C)CO)C[C@@H]1C	4.3
C[C@@H]1CCCCO[C@@H](CN(C)Cc2ccccc2)[C@H](C)CN([C@H](C)CO)C(=O)c2cc(NS(=O)(=O)c3cccs3)ccc2O1	0.4
Cc1noc(C)c1NC(=O)Nc1ccc2c(c1)CC(=O)N([C@@H](C)CO)C[C@H](C)[C@@H](CN(C)Cc1ccncc1)O2	-3.6
C[C@@H]1CN([C@@H](C)CO)C(=O)c2cccc(NC(=O)Nc3ccc(F)cc3)c2O[C@H]1CN(C)C(=O)Nc1ccc(F)cc1	-0.3
COc1ccc(CN(C)C[C@@H]2Oc3ccc(NS(=O)(=O)c4ccc(OC)cc4)cc3CC(=O)N([C@H](C)CO)C[C@H]2C)cc1	-0.5
C[C@H]1CN([C@@H](C)CO)C(=O)Cc2cc(NS(=O)(=O)c3cccs3)ccc2O[C@@H]1CN(C)S(=O)(=O)c1ccc(Cl)cc1	?
C[C@@H]1CN([C@H](C)CO)C(=O)c2cccc(NS(=O)(=O)c3ccc(Cl)cc3)c2O[C@@H]1CN(C)S(=O)(=O)c1cn(C)cn1	-3.0
C[C@H](CO)N1C[C@H](C)[C@H](CN(C)Cc2ccc3c(c2)OCO3)OCc2cn(nn2)CCCC1=O	?
C[C@@H]1CN([C@H](C)CO)C(=O)CCCn2nncc2CO[C@H]1CN(C)C(=O)Nc1ccccc1F	-3.9
C[C@@H]1CN([C@H](C)CO)C(=O)c2cccc(NC(=O)c3nc4ccccc4s3)c2O[C@@H]1CN(C)CC1CC1	3.8
CC(C)NC(=O)N(C)C[C@@H]1OCCCC[C@@H](C)Oc2ccc(NC(=O)CCC(F)(F)F)cc2C(=O)N([C@H](C)CO)C[C@@H]1C	2.0
COc1ccc(NC(=O)N(C)C[C@H]2Oc3c(NS(=O)(=O)c4cccs4)cccc3C(=O)N([C@@H](C)CO)C[C@@H]2C)cc1	1.5
C[C@@H]1CCCCO[C@@H](CN(C)C(=O)CCCN(C)C)[C@H](C)CN([C@@H](C)CO)C(=O)c2cc(NC(=O)c3ccncc3)ccc2O1	2.0
Cc1noc(C)c1NC(=O)Nc1ccc2c(c1)CC(=O)N([C@H](C)CO)C[C@@H](C)[C@H](CN(C)Cc1ccncc1)O2	2.6
CC(C)NC(=O)N(C)C[C@H]1Oc2ccc(NC(=O)C3CC3)cc2CC(=O)N([C@H](C)CO)C[C@@H]1C	-0.6
C[C@H]1CN([C@@H](C)CO)C(=O)Cc2cc(NS(=O)(=O)c3cn(C)cn3)ccc2O[C@H]1CN(C)Cc1ccccc1	2.7
C[C@@H]1CN([C@H](C)CO)C(=O)c2cc(NC(=O)c3ccncc3)ccc2O[C@@H]1CN(C)C(=O)Nc1ccc(F)cc1	0.6
C[C@H]1CCCCO[C@H](CN(C)C(=O)c2ccccc2)[C@@H](C)CN([C@@H](C)CO)C(=O)c2cc(NC(=O)Nc3ccc(F)cc3)ccc2O1	-2.6
C[C@H]1CN([C@@H](C)CO)C(=O)c2cc(NC(=O)CCCN(C)C)ccc2O[C@@H]1CN(C)Cc1ccc2c(c1)OCO2	-1.5
C[C@@H]1CCCCO[C@@H](CN(C)C(=O)CCCN(C)C)[C@@H](C)CN([C@H](C)CO)C(=O)c2cc(NS(=O)(=O)c3cccs3)ccc2O1	6.0
C[C@@H]1CCCCO[C@H](CN(C)C(=O)c2ccncc2)[C@H](C)CN([C@H](C)CO)C(=O)c2cc(N(C)C)ccc2O1	3.4
C[C@@H]1CN([C@@H](C)CO)C(=O)Cc2cc(NS(=O)(=O)c3ccccc3)ccc2O[C@@H]1CN(C)C	4.7
COc1ccc(CN(C)C[C@H]2Oc3c(NC(=O)Nc4ccc(OC)cc4)cccc3C(=O)N([C@H](C)CO)C[C@H]2C)cc1	-0.6
CC(C)NC(=O)N(C)C[C@H]1Oc2ccc(N(C)C)cc2CC(=O)N([C@H](C)CO)C[C@@H]1C	0.8
C[C@@H]1CN([C@@H](C)CO)C(=O)c2cc(NC(=O)c3ccncc3)ccc2O[C@H]1CN(C)S(=O)(=O)c1cccs1	-1.3
C[C@H](CO)N1C[C@H](C)[C@@H](CN(C)C(=O)NC2CCCCC2)Oc2ccc(NC(=O)Nc3ccc4c(c3)OCO4)cc2CC1=O	3.6
CNC[C@@H]1Oc2ncc(-c3cc4ccccc4o3)cc2C(=O)N([C@H](C)CO)C[C@@H]1C	0.9
C[C@H](CO)N1C[C@H](C)[C@H](CN(C)C(=O)Cc2ccccc2)OCCCC[C@H](C)Oc2ccc(NC(=O)Nc3ccccc3)cc2C1=O	0.9
C[C@H](CO)N1C[C@H](C)[C@@H](CN(C)C(=O)NC2CCCCC2)Oc2c(NC(=O)c3cnccn3)cccc2C1=O	-7.4
Cc1noc(C)c1NC(=O)N(C)C[C@@H]1Oc2ccc(NC(=O)Nc3cccc4ccccc34)cc2C(=O)N([C@@H](C)CO)C[C@H]1C	1.7
C[C@@H]1CN([C@@H](C)CO)C(=O)c2cccc(NC(=O)C3CCOCC3)c2O[C@@H]1CN(C)Cc1ccccc1	-0.9
C[C@H](CO)N1C[C@H](C)[C@H](CN(C)Cc2ccncc2)OCCCC[C@H](C)Oc2ccc(NC(=O)Nc3ccccc3)cc2C1=O	10.0
C[C@@H]1CN([C@@H](C)CO)C(=O)c2cccc(NC(=O)NC3CCCCC3)c2O[C@H]1CN(C)C(=O)NC1CCCCC1	4.3
C[C@H]1CCCCO[C@@H](CN(C)C(=O)C2CCCCC2)[C@@H](C)CN([C@@H](C)CO)C(=O)c2cc(NC(=O)Nc3ccccc3)ccc2O1	-4.1
C[C@@H]1CCCCO[C@H](CN(C)S(=O)(=O)c2ccc(F)cc2)[C@H](C)CN([C@@H](C)CO)C(=O)c2cc(NC(=O)c3ccncc3)ccc2O1	-1.1
C[C@@H]1CCCCO[C@@H](CN(C)C(=O)C2CCCCC2)[C@@H](C)CN([C@@H](C)CO)C(=O)c2cc(NC(=O)Nc3ccccc3)ccc2O1	-1.2
CC(C)NC(=O)Nc1cccc2c1O[C@H](CN(C)Cc1ccc(Cl)c(Cl)c1)[C@H](C)CN([C@H](C)CO)C2=O	1.8
CNC[C@@H]1Oc2ccc(NC(=O)Nc3ccccc3)cc2CC(=O)N([C@H](C)CO)C[C@H]1C	11.6
Cc1noc(C)c1NC(=O)N(C)C[C@@H]1Oc2ccc(NS(=O)(=O)c3cn(C)cn3)cc2C(=O)N([C@H](C)CO)C[C@H]1C	-5.7
CC(C)NC(=O)N(C)C[C@@H]1OCCCC[C@@H](C)Oc2ccc(NS(=O)(=O)c3ccccc3)cc2C(=O)N([C@H](C)CO)C[C@H]1C	-0.8
C[C@@H]1CN([C@H](C)CO)C(=O)c2cccc(NS(=O)(=O)c3ccc(F)cc3)c2O[C@H]1CN(C)C(=O)NC1CCCCC1	2.8
C[C@H]1CN([C@@H](C)CO)C(=O)c2cc(NC(=O)Cn3cnnn3)ccc2O[C@H]1CN(C)C(=O)NC1CCCCC1	-0.7
C[C@H](CO)N1C[C@H](C)[C@@H](CN(C)C(=O)Nc2ccc(C(F)(F)F)cc2)Oc2c(cccc2N(C)C)C1=O	0.2
C[C@@H]1CN([C@H](C)CO)C(=O)c2cc(N(C)C)ccc2O[C@@H]1CN(C)S(=O)(=O)c1ccccc1	-1.9
C[C@H]1CCCCO[C@@H](CN(C)S(=O)(=O)c2cccs2)[C@@H](C)CN([C@@H](C)CO)C(=O)c2cc(N(C)C)ccc2O1	-2.1
C[C@@H]1CN([C@@H](C)CO)C(=O)c2cccc(NS(=O)(=O)c3cccs3)c2O[C@H]1CN(C)C(=O)Nc1cccc2ccccc12	?
C[C@@H]1CN([C@@H](C)CO)C(=O)c2cc(NS(=O)(=O)c3ccccc3)ccc2O[C@@H](C)CCCCO[C@H]1CN(C)C(=O)c1ccncc1	-5.5
C[C@@H]1CN([C@@H](C)CO)C(=O)Cc2cc(NS(C)(=O)=O)ccc2O[C@@H]1CN(C)CC1CC1	2.7
C[C@@H]1CCCCO[C@H](CN(C)C)[C@@H](C)CN([C@H](C)CO)C(=O)c2cc(NC(=O)c3ccncc3)ccc2O1	-3.2

Another view of some results above:
compound | Ran FRET
C[C@@H]1CN([C@H](C)CO)C(=O)c2cc(NC(=O)c3ccncc3)ccc2O[C@@H]1CN(C)C(=O)Nc1ccc(F)cc1 | 0.6
C[C@H]1CCCCO[C@H](CN(C)C(=O)c2ccccc2)[C@@H](C)CN([C@@H](C)CO)C(=O)c2cc(NC(=O)Nc3ccc(F)cc3)ccc2O1 | -2.6
C[C@H]1CN([C@@H](C)CO)C(=O)c2cc(NC(=O)CCCN(C)C)ccc2O[C@@H]1CN(C)Cc1ccc2c(c1)OCO2 | -1.5
C[C@@H]1CCCCO[C@@H](CN(C)C(=O)CCCN(C)C)[C@@H](C)CN([C@H](C)CO)C(=O)c2cc(NS(=O)(=O)c3cccs3)ccc2O1 | 6.0
C[C@@H]1CCCCO[C@H](CN(C)C(=O)c2ccncc2)[C@H](C)CN([C@H](C)CO)C(=O)c2cc(N(C)C)ccc2O1 | 3.4

(continued)
SMILES	Ran FRET
CNC[C@H]1OCCCC[C@H](C)Oc2ccc(NS(=O)(=O)c3c(C)noc3C)cc2C(=O)N([C@@H](C)CO)C[C@H]1C	-1.0
C[C@@H]1CCCCO[C@@H](CN(C)C(=O)C2CCCCC2)[C@@H](C)CN([C@@H](C)CO)C(=O)c2cc(NS(=O)(=O)c3cccs3)ccc2O1	4.4
CNC[C@H]1Oc2c(NC(=O)c3nc4ccccc4s3)cccc2C(=O)N([C@H](C)CO)C[C@H]1C	?
C[C@H](CO)N1C[C@H](C)[C@@H](CN(C)C)OCCCC[C@H](C)Oc2ccc(NS(C)(=O)=O)cc2C1=O	-6.0
C[C@H]1CN([C@@H](C)CO)C(=O)c2cccc(NC(=O)c3cnccn3)c2O[C@H]1CN(C)S(=O)(=O)c1cn(C)cn1	-1.1
Cc1noc(C)c1S(=O)(=O)N(C)C[C@@H]1Oc2ccc(NC(=O)Cc3cn(C)c4ccccc34)cc2CC(=O)N([C@H](C)CO)C[C@@H]1C	-0.6
C[C@@H]1CN([C@H](C)CO)C(=O)c2cc(NS(C)(=O)=O)ccc2O[C@@H](C)CCCCO[C@H]1CN(C)Cc1ccncc1	0.3
C[C@@H]1CN([C@H](C)CO)C(=O)Cc2cc(NC(=O)CCN3CCOCC3)ccc2O[C@@H]1CN(C)C(=O)Nc1ccccc1	3.4
Cc1noc(C)c1S(=O)(=O)Nc1ccc2c(c1)C(=O)N([C@H](C)CO)C[C@@H](C)[C@@H](CN(C)C(=O)Nc1ccc(F)cc1)O2	11.8
C[C@H](CO)N1C[C@H](C)[C@H](CN(C)S(=O)(=O)c2ccc(F)cc2)Oc2ncc(C#CC(C)(C)O)cc2C1=O	-1.5
Cc1noc(C)c1S(=O)(=O)N(C)C[C@@H]1Oc2ccc(NC(=O)Cc3cn(C)c4ccccc34)cc2CC(=O)N([C@@H](C)CO)C[C@H]1C	2.5
COc1ccc(CN(C)C[C@H]2Oc3ccc(NC(=O)Nc4ccc5c(c4)OCO5)cc3CC(=O)N([C@H](C)CO)C[C@H]2C)cc1	1.1
CNC[C@@H]1Oc2ccc(NS(=O)(=O)c3ccccc3)cc2C(=O)N([C@@H](C)CO)C[C@@H]1C	-0.6
C[C@@H]1CN([C@H](C)CO)C(=O)Cc2cc(NC(=O)Cc3ccccc3)ccc2O[C@@H]1CN(C)C(=O)Nc1ccc(F)cc1	1.4
CC(C)NC(=O)N(C)C[C@@H]1OCCCC[C@H](C)Oc2ccc(NC(=O)CCC(F)(F)F)cc2C(=O)N([C@H](C)CO)C[C@H]1C	-1.2
C[C@@H]1CN([C@@H](C)CO)C(=O)Cc2cc(NS(C)(=O)=O)ccc2O[C@H]1CN(C)C(=O)NC1CCCCC1	2.0
C[C@@H]1CN([C@@H](C)CO)C(=O)c2cc(N(C)C)ccc2O[C@@H]1CN(C)C(=O)Nc1ccc2c(c1)OCO2	-3.4
C[C@H]1CCCCO[C@@H](CN(C)C)[C@@H](C)CN([C@@H](C)CO)C(=O)c2cc(NC(=O)Nc3ccccc3)ccc2O1	-4.7
CNC[C@H]1Oc2ccc(NC(=O)CCN3CCOCC3)cc2CC(=O)N([C@@H](C)CO)C[C@@H]1C	-6.4
C[C@@H]1CN([C@@H](C)CO)C(=O)c2cccc(NS(C)(=O)=O)c2O[C@H]1CN(C)Cc1ccc(C(F)(F)F)cc1	1.7
C[C@@H]1CCCCO[C@@H](CN(C)S(=O)(=O)c2ccccc2)[C@H](C)CN([C@H](C)CO)C(=O)c2cc(NC(=O)Nc3ccccc3)ccc2O1	-3.5
C[C@H]1CN([C@@H](C)CO)C(=O)c2cc(NC(=O)Cc3cn(C)c4ccccc34)ccc2O[C@@H]1CN(C)CC1CC1	-3.5
CNC[C@H]1Oc2ccc(NS(C)(=O)=O)cc2CC(=O)N([C@H](C)CO)C[C@@H]1C	-0.1
C[C@@H]1CN([C@@H](C)CO)C(=O)Cc2cc(NC(=O)c3ccncc3)ccc2O[C@@H]1CN(C)S(=O)(=O)c1cccs1	1.8
C[C@@H]1CN([C@@H](C)CO)C(=O)c2cc(NC(=O)CCC(F)(F)F)ccc2O[C@@H]1CN(C)C(=O)Nc1ccccc1	2.1

Bioassay records (PubChem BioAssay)
